# Assay outcomes from PubChem.
# Tgondii IFNg – T. gondii growth inhibition with IFN-gamma, primary screen, cell-based; Toxoplasma gondii growth in IFN-gamma-treated host cells; hits give low values; reference of the scale not given here; activity change, negative = inhibition, %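 (about 20 µM by stock and volumes)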; 3.8% of 69,000 active; AID 1259416, 2018;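 active means below -70%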;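 further: host cells are HeLa cells infected with Toxoplasma gondii; parasite growth read as luciferase light; one replicate is shown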
# * hit, by the source's call; & = joins results of further samples. This is a subset; count on the stated rates, not on these rows.
SMILES,Tgondii IFNg
CCC(C)(Oc1ccc(C2(c3ccc(OC(C)(CC)C(=O)O)cc3)CCCCC2)cc1)C(=O)O (stereo not drawn),7.7
CCC(C(=O)N1CCN(c2ncccn2)CC1)n1c2ccccc2c2cnn(C)c(=O)c21 (stereo not drawn),-86.0*
Cn1nc(C(F)(F)F)c(Cl)c1C(=O)N1CCCC1Cn1cccn1 (stereo not drawn),5.7
Cc1cnccc1NCCNC1CCN(CC(C)C)CC1,1.8
COc1ccc(NC(=O)Nc2cccc3c2O[C@H](CN(C)Cc2ccc(C(=O)O)cc2)[C@H](C)CN([C@H](C)CO)C3=O)cc1,61.2
COCc1ccc(C(=O)N(C)Cc2ccc3ncccc3c2)o1,1.1
CCCN(Cc1nccn1C)C(C)C(=O)Nc1ccc(C)cc1 (stereo not drawn),-3.8
CNC(=O)[C@H]1CC2CN(C(=O)c3cnccn3)CC2N1C(C)=O (stereo partly drawn),6.4
O=C1NCC2(CCCN(C(=O)c3cnc(Nc4ccccc4)nc3)CC2)O1 (stereo not drawn),7.2
CCN(C[C@@H]1[C@@H](c2ccc(C3=CCCCC3)cc2)[C@@H](CO)N1CC1CC1)C(C)=O,7.0
CSc1nnnn1-c1c(C)cc(C)cc1C,123.4
COc1cc(NC(=O)Cn2ncc3c(N4CCC(C)CC4)ncnc32)cc(OC)c1,-21.3
Cn1cc(Cn2ccnc2-c2ccc(-c3nc4ccccc4n3C)o2)cn1,61.8
COc1ccc(N2CCN(CCNc3nc(-c4ccc(Cl)cc4)nc4ccccc34)CC2)cc1,151.9
O=C(Cc1cccc2ccccc12)N1CCOC2(CNCCOC2)C1 (stereo not drawn),-47.4
CCOc1ccc(NC(=O)c2cnc3ccccc3n2)cc1,67.0
CC(C)c1noc(-c2ccc(NCC3OCCc4ccccc43)nc2)n1 (stereo not drawn),7.0
c1ccc(-c2nncn2C2CCNCC2)cc1,3.6
Cc1ccc(C(=O)N2CCCc3c(c(=O)n(C)n3C)C2)o1,-3.3
C/C=C/c1ccc([C@H]2[C@H](CO)N(C(C)=O)[C@H]2CNC(=O)c2ccccc2)cc1,-20.5
CCc1cccc2c(CC(=O)Nc3n[nH]c(-c4cccs4)c3C)c(C)[nH]c12,474.9
Cc1cnc(CCNC(=O)Cn2cccc(C(=O)NC3CCCCC3)c2=O)s1,3.3
COc1ccc(N(Cc2nc3ccccc3n2C)C(=O)C2=NNC(=O)CC2)cc1,378.1
CS(=O)(=O)c1ccc(-c2cccc(-n3cnnc3)c2)cc1,-51.4
O=C(c1cc2cccnc2n(Cc2ccc(F)cc2)c1=O)N(Cc1ccccc1)c1ccccc1,-28.7

# Going on with the list.
SMILES,Tgondii IFNg
COc1ccc2c3c([nH]c2c1)[C@@H](CO)N(CC1CCCCC1)CC31CN(C(=O)C2CCOCC2)C1,-12.8
CCSc1ccc2c(c1)N(CCCN1CCN(C)CC1)c1ccccc1S2,-78.0*
O=C1CC(c2cccnc2)C2(CCN(Cc3ccoc3)CC2)N1 (stereo not drawn),-23.6
CN(Cc1cc(-c2ccccc2)no1)Cc1ccnn1-c1ccccc1,1.2
CC(=O)N1[C@H](CO)[C@H]2c3ccccc3N(C(=O)c3ccc(F)cc3)C[C@H]21,2.5
Cn1c(SCC(=O)N2CCN(C(=O)c3ccco3)CC2)nc2cccnc21,-5.6
Cc1oc(-c2cccs2)nc1-c1c(-c2ccccc2)ncn1CCCO,-3.9
CCc1nnc(NC(=O)CCN2C[C@@H]3[C@@H]4CC[C@@H](C4)[C@@H]3C2)s1,5.4
Cc1cc(C)c(NC(=O)Cn2c(=O)cc(C(=O)N3CCOCC3)c3ccccc32)c(C)c1,1.4
COc1cccc(C(=O)Nc2ccc3c(c2)C(=O)N(C)[C@H]2CC[C@H](CC(=O)NCc4ccc(F)cc4)O[C@H]2CO3)c1,-20.6
c1cnc(-c2cnc(NCCN3CCOCC3)nc2[C@H]2CCCO2)cn1,-7.8
O=C(C1CCCCn2nnnc21)N1CCc2[nH]nc(-c3ccccc3)c2C1 (stereo not drawn),0.8
CCN(CCN1CCCC1)Cc1cccnc1,-0.8
CO[C@@H](CN(C)C(=O)c1cnccn1)[C@@H](C)CN([C@H](C)CO)S(=O)(=O)c1ccccc1,29.2
O=C(CC1CC1)N1CC[C@@H]2[C@H](CO)Nc3ccc(-c4ccc(F)cc4)cc3[C@@H]21,-30.6
Cc1cc(C(=O)NCCN2CCCCC2)no1,93.0
CC(NCC(O)CP(=O)(O)CC1CCCCC1)c1ccc(Cl)c(Cl)c1 (stereo not drawn),9.2
CCc1nnc(NC(=O)CSC2=NC(=O)C(NC(C)=O)C(=O)N2)s1 (stereo not drawn),7.2
CCOC(=O)c1cncc(C#CCOC(=O)Nc2ccc(OC(F)(F)F)cc2)c1,-32.8
COC(=O)[C@@H]1C[C@@H](N(C)C)CN1S(=O)(=O)c1c(C)cccc1Cl,-6.2
COc1ccccc1NC(=O)N1CCCCN2[C@H](C1)[C@@H](c1ccc(-c3cccc(C#N)c3)cc1)[C@@H]2CO,-69.9
COC(=O)c1cc2n(n1)CCCN(C(=O)c1ccc3c(c1)OCCO3)C2,11.5
O=C(C[C@H]1CC[C@@H]2[C@H](COC[C@@H](O)CN2Cc2ccc(Oc3ccccc3)cc2)O1)N1CCN(c2ccccc2)CC1,-47.1
N#Cc1cccc(-c2ccc3c(c2)[C@@H]2[C@@H](CCN2C(=O)c2ccccc2F)[C@H](CO)N3)c1,-55.2
COc1ccc(N2CCN(Cc3ccc4nsnc4c3)C(C)C2)cc1 (stereo not drawn),6.4

# Grouped by structure: those above containing an aryl thioether with sulfur outside any ring (three)
SMILES,Tgondii IFNg
CSc1nnnn1-c1c(C)cc(C)cc1C,123.4
CCSc1ccc2c(c1)N(CCCN1CCN(C)CC1)c1ccccc1S2,-78.0*
Cn1c(SCC(=O)N2CCN(C(=O)c3ccco3)CC2)nc2cccnc21,-5.6

# 5 records drawn at random from the list so far:
SMILES,Tgondii IFNg
Cn1nc(C(F)(F)F)c(Cl)c1C(=O)N1CCCC1Cn1cccn1 (stereo not drawn),5.7
CN(Cc1cc(-c2ccccc2)no1)Cc1ccnn1-c1ccccc1,1.2
Cc1cc(C(=O)NCCN2CCCCC2)no1,93.0
O=C(Cc1cccc2ccccc12)N1CCOC2(CNCCOC2)C1 (stereo not drawn),-47.4
CCSc1ccc2c(c1)N(CCCN1CCN(C)CC1)c1ccccc1S2,-78.0*

# The list continues.
SMILES,Tgondii IFNg
C[C@H]1CN([C@@H](C)CO)S(=O)(=O)c2ccc(-c3cncnc3)cc2O[C@H]1CN(C)C(=O)NC1CCCC1,-3.0
O=C(O)c1ccccc1/C=C/c1cccs1,39.8
Cn1c(=O)c2nc(-c3ccccc3I)oc2c2ccccc21,-1.5
COc1ccc(Br)cc1-c1nc(Cn2c(=O)c3c(C)cc(C)nc3n(C)c2=O)c(C)o1,5.7
O=C(C1CCOCC1)N1CC(=O)N2[C@H](C1)[C@H](c1ccc(/C=C/c3ccccc3)cc1)[C@@H]2CO,-34.0
Clc1ccc(-n2ncc3c(NCc4ccccc4)ncnc32)cc1,22.3
O=C(CN1CCOCC1)N1CC2(C1)[C@@H](c1ccccc1)[C@H](CO)N2Cc1cccc(F)c1,-0.3
CCCNC(=O)N1[C@H](CO)[C@H]2c3ccccc3N(C(=O)Nc3cccc(Cl)c3)C[C@H]21,2.7
CCN1C[C@@H]2C3(CCN(C(=O)c4cscn4)CC3)CC[C@@]2(C(=O)NC)C1,-10.5
CN1C(=O)CCc2cc(NC(=O)c3ccncc3)ccc21,2.7
CCn1c(=O)c(-c2nc(-c3cccc(C)c3)no2)c(O)c2ccc(F)cc21,65.6
COc1ccc(N2CCN(C(=O)Cn3ncc4c(N5CCCCC5)ncnc43)CC2)cc1,10.4
COc1ccc(C)cc1NC(=O)C(=O)NCCc1csc(-c2ccc(F)cc2)n1,-13.8
Cc1c(C(=O)NCCS(=O)(=O)N2CCCC2)n(C)c2ccc(Cl)cc12,-3.5
Cc1ccc(CNC(=O)Cn2c(=O)cc(C(=O)N3CCOCC3)c3ccccc32)cc1,7.5
COc1ncccc1-c1cncc(C(=O)N2CCCCC2)n1,-0.1
N[C@H](Cc1ccc(I)cc1)C(=O)O,14.3
O=C(COc1ccccc1)NCCc1csc(-c2ccc(F)cc2)n1,7.4
c1ccc(Oc2ccc(-c3cc(N4CCOCC4)n[nH]3)cc2)cc1,-66.1
C=CCN(Cc1cccnc1)Cc1ccc(O)c(C)c1,27.3
O=C(NCc1ccc(F)cc1)[C@H]1[C@H](CO)[C@H]2Cn3c(cccc3=O)[C@H]2N1C(=O)c1cccnc1,12.3
O=C(Cc1ccncc1)NCC[C@@H]1CC[C@H](NS(=O)(=O)c2ccccc2Cl)[C@H](CO)O1,-47.2
Cc1ccc(N2CC(NC(=O)C(=O)c3c[nH]c4ccccc34)CC2=O)cc1 (stereo not drawn),3.5
Cc1ccc(C2=NNC3(CCOC(C)(C)C3)S2)cc1 (stereo not drawn),189.5
COc1cccc(-c2nc3c(s2)CN(S(=O)(=O)c2cccc(F)c2)CC3)c1,-87.6*

# Next section (two carried over from the part before).
SMILES,Tgondii IFNg
Cc1ccc(C2=NNC3(CCOC(C)(C)C3)S2)cc1 (stereo not drawn),189.5
COc1cccc(-c2nc3c(s2)CN(S(=O)(=O)c2cccc(F)c2)CC3)c1,-87.6*
CCC(=O)Oc1c(C)cc(O)c2ccccc12,59.6
CCc1ccccc1-c1ccc2cc[nH]c(=O)c2c1,1.6
Cc1cccc(N2CCN(C(=S)c3ccccc3)CC2)c1,25.2
COc1ccc(NC(=O)N(C)C[C@@H]2Oc3ccc(NC(=O)CCN4CCOCC4)cc3C(=O)N([C@H](C)CO)C[C@H]2C)cc1,43.5
COCCC(=O)N1C[C@H]2CN(c3cnn(C)c3)C(=O)[C@@H]2C1,35.3
COc1ccccc1C1CN(Cc2c(C)nn(C)c2Cl)Cc2ccccc2O1 (stereo not drawn),-36.6
O=S(=O)(c1ccc(Cl)cc1)N1CCC2(CC1)Nc1ccccc1-n1cccc12,26.2
O=C(c1cccnc1)N1CCC2(CC(OCC3CC3)CO2)C1 (stereo not drawn),2.0
CC(c1nccs1)N(C)Cc1nc(-c2ccco2)no1 (stereo not drawn),71.8
COc1ccc(S(=O)(=O)CCC(=O)Nc2c(C)ccc3nc(C)ccc23)cc1,-14.1
COCC(NC(=O)c1cc(-c2ccccc2Cl)oc1C)c1ccccn1 (stereo not drawn),-35.4
COCC(=O)N1CCC2(CC1)CC1(CCN(Cc3cccnc3)CC1)C(=O)N2C,-5.4
Cc1cccnc1C(=O)N1CC[C@H](O)C[C@@H]1C(=O)O,-22.1
Cc1noc(C)c1S(=O)(=O)Nc1ccc2c(c1)C(=O)N([C@@H](C)CO)C[C@@H](C)[C@@H](CN(C)Cc1ccc(C(=O)O)cc1)OCCCC[C@H](C)O2,52.0
Cc1cc(F)ccc1NC(=O)Cn1c(=O)ccc2cc(S(=O)(=O)N3CCC(C)CC3)ccc21,-9.0
COc1ccc(C2C(C#N)=C(N)Oc3cc(C)[nH]c(=O)c32)c(OC)c1OC (stereo not drawn),-7.8
Cn1cc(C2=C(c3ccc(Cl)cc3Cl)C(=O)NC2=O)c2ccccc21,6.8&-29.4
Cc1ccc(C(=O)Oc2ccc3c(C)cc(=O)oc3c2)cc1,-29.9
CN(C)CC1(O)CCCN(C(=O)c2cccc3cc[nH]c23)C1 (stereo not drawn),2.2
CCC(=O)N1C[C@H]2[C@@H](c3ccccc31)[C@H](CO)N2Cc1ccc(F)cc1,3.9
COc1cc(CN(CCN(C)C)Cc2ccncc2)cc(OC)c1,-11.0
CN1C(Cn2cccn2)CC2CN(C(=O)C3CCOC3)CCC21 (stereo not drawn),19.4
CN(C)C(=O)COC1COC2(CCN(Cc3nccn3C)CC2)C1 (stereo not drawn),-23.9
Cc1ccsc1CN(C)C(=O)c1cc(Cn2ccnc2C(C)C)[nH]n1,-0.7
O=C(NC1CCCCC1)N1CCC2(CC1)Nc1ccccc1-n1cccc12,293.2

# Next section.
SMILES,Tgondii IFNg
CCc1ccc(NC(=O)N2CCC3(CC2)NC(=O)c2ccc(Cl)cc2N3CC)cc1,15.7
CCc1ccc(NC(=O)C(=O)NCCc2sc(-c3cccc(C)c3)nc2C)cc1,70.8
Cc1cccc(C)c1NC(=O)Cn1c(=O)cc(C(=O)N2CCOCC2)c2ccccc21,-0.1
COc1ccc(-c2noc(-c3c(O)c4cc(Cl)ccc4[nH]c3=O)n2)cc1,-13.4
CCn1c(C2CCCN(Cc3cnc(N4CCCCC4)nc3)C2)n[nH]c1=O (stereo not drawn),-7.3
CCN1Cc2ccccc2CC1C(=O)N(C)Cc1ccc2c(c1)OCO2 (stereo not drawn),4.5
N#C[C@@H]1[C@@H](c2ccccc2)[C@H](CO)N1C(=O)c1cc(Cl)cc(Cl)c1,-24.4
O=C(CC(c1ccccc1)c1ccccc1)N1CCN(C(c2ccccc2)c2ccccc2)CC1,-6.1
CC(C)c1ccc(CNC(=O)CSc2cccc3cccnc23)cc1,11.1
COCCC(=O)N1CCOCC1c1nccc(N2CCOCC2)n1 (stereo not drawn),-50.4
O=C1CCc2cc(S(=O)(=O)NCCc3ccc(Cl)cc3)cc3c2N1CCC3,-3.3
O=C(O)c1cc(=O)c2cccc(O)c2[nH]1,-67.6
Cc1ncc(-c2nccn2C(C)c2cnn(-c3ccccc3)c2)n1C (stereo not drawn),-2.4
Fc1ccc(Cc2nc(C3CCCN3Cc3ccnc(N4CCOCC4)n3)n[nH]2)cc1 (stereo not drawn),13.2
COC(=O)[C@@H]1C[C@@H](NC(=O)COc2ccc3c(c2)OCO3)CN1C,-6.7
O=C(Cn1c(=O)ccc2cc(S(=O)(=O)N3CCCC3)ccc21)NCc1ccco1,76.3
COc1ccccc1N1CCN(CCCCNC(=O)c2ccc(-c3ccc(C(C)=O)cc3)cc2)CC1,7.2
COc1ccc(S(=O)(=O)N2CCc3nc(-c4ccccc4)sc3C2)cc1,-19.7
Cc1cc(C)cc(NC(=O)CN2C(=O)CCc3cc(Br)ccc32)c1,-39.5
CCCNC(=O)N1C[C@@H](C)[C@@H](OC)CN(C)C(=O)c2ccc(NC(=O)CC)cc2OC[C@@H]1C,26.2
c1cnc(N2CC3(CCN(CC4CCOC4)CC3)c3ccccc32)nc1 (stereo not drawn),-49.8
COC(=O)c1cc(OC(=O)C23CC4CC(CC(C4)C2)C3)n(C)n1,53.5
